Screening results: PubChem, several laboratories
HNF4A DNA FP – change in binding of human HNF4A to DNA, primary screen, biochemical, fluorescence polarization, FITC-DNA; 1 h; activity change, % at 10 µM; 0.3% of 360,000 active; AID 1224865, 2016; in the data active = activity change above about 30%, passing the limit was not always enough;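 note: controls were the assay level and a saturating level of protein; the project sought stronger binding though the title names inhibitors; some compounds called inactive have numbers as strong as hits; positive values seem to mean higher polarization but the record does not say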
Target sequence (P41235 whole entry, looked up): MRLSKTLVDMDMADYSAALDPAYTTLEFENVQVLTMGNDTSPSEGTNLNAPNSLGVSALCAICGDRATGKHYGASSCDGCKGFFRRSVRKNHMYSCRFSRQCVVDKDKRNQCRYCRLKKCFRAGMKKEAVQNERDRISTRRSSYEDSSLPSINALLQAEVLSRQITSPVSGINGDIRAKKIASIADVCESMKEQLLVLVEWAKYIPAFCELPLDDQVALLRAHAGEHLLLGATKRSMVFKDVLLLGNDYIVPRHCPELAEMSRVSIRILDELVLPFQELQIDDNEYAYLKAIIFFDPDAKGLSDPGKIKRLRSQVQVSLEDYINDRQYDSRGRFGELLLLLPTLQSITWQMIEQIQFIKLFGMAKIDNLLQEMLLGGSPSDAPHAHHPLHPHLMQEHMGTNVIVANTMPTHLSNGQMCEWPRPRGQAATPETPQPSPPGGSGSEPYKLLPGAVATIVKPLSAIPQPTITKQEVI
ALR H2O2 inh – inhibitors of human ALR sulfhydryl oxidase, primary screen, biochemical, H2O2 detection, HRP-luminol luminescence, single point; FAD-linked sulfhydryl oxidase ALR (Homo sapiens), P55789; purified ALR, DTT oxidation; 3.8% of 290,000 active; inhibition, % (test concentration not listed);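 active = mean and each replicate at 75% or more; inconclusive = only one of the two met; inactive = neither met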;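 note: stock transfer was 7.5 nL into about 7.5 µL; 0% = neutral wells and 100% = wells with inactivated enzyme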
LANA-H2A inh – blockers of LANA interaction with H2A/H2B – biochemical, FP readout, HTS, primary screen | Protein LANA1 (Human herpesvirus 8 type P (isolate GK18)), Q9QR71 | cell-free LANA-H2A/H2B peptide, fluorescence polarization | inhibition, % (no concentration beside the values) | 0.6% of 320,000 active | AID 2629, 2010; in the data active = inhibition mostly above about 10%, no sharp cut-off; inactive = mostly below about 6.7%;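 note: stock transfer was 7.5 nL into about 10 µL; 0% = median of vehicle wells and 100% = median of positive control wells; one replicate is shown; the record names a cut of 25% in any replicate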
FGF22 binding – binders of human FGF22 protein, primary screen, FGF22 synaptogenesis inhibitor project, biophysical, thermal shift, single point; Fibroblast growth factor 22 (Homo sapiens), Q9HCT0; recombinant FGF22 thermal shift, SYPRO orange fluorescence; percent of sucrose octasulfate shift, DMSO zero; calls only at 9.99 µM; 1.5% of 340,000 active;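 active = melting point raised past a set limit in the mean and every replicate; inconclusive = no clear call; three in four hits are not shown here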
Target sequence (Q9HCT0 whole entry, looked up): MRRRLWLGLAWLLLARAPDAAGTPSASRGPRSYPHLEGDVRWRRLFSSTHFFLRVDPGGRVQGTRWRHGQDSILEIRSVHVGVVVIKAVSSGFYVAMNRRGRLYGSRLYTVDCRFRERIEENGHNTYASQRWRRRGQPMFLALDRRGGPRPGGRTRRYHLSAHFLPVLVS
E coli growth – E. coli growth inhibition, primary screen, OD600. AID 1053175, 2014. Escherichia coli growth, 23 h; hits give low values. OD600 absorbance (concentration not given with the values). 0.21% of 330,000 active;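 active = OD600 absorbance below the run mean of sample wells minus 3.6 SD, in any replicate, cut at about 0.56 in these data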;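 note: stock transfer was 300 nL into about 60 µL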
UCH37 inh – inhibitors of human UCH37 deubiquitinase, primary screen, biochemical, Ub-AMC cleavage, fluorescence; Ubiquitin carboxyl-terminal hydrolase isozyme L5 (Homo sapiens), Q9Y5K5; purified proteasome/UCH37; inhibition, % (no concentration beside the values); 0.33% of 330,000 active; AID 588478, 2011;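 active = mean of two replicates above 20%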;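 note: 0% = compound-free wells with enzyme and 100% = wells lacking proteasome; stock transfer was 100 nL into about 20 µL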
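system = Proteasome-associated human UCH37 deubiquitinase | amount = 0.15 nM proteasome as dispensed | medium = pH 7.4 Tris-HCl (50 mM) with ovalbumin, ATP-MgCl2, DTT | incubation = 30 min preincubation with enzyme, 25 min cleavage at room temperature | detection = AMC fluorescence 355/460 nm | read-out basis = percent inhibition | controls = no-proteasome and no-compound wells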
B2AR ag – beta2AR agonists driving receptor internalization, primary screen, cell-based, FAP fluorogen, flow cytometry; Beta-2 adrenergic receptor (Homo sapiens), P07550; Am2.2-beta2AR cells; reference of the scale not given here; response, % (test concentration not listed); 0.43% of 340,000 active; AID 504454, 2011;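 active = response above a set limit, near 3 SD of response in nonfluorescent compounds, cut at about 42% in these data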;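 note: stock transfer was 100 nL into about 11 µL; a reference agonist was the positive control; negative values mostly stem from fluorescent compounds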
Target sequence (P07550 whole entry, looked up): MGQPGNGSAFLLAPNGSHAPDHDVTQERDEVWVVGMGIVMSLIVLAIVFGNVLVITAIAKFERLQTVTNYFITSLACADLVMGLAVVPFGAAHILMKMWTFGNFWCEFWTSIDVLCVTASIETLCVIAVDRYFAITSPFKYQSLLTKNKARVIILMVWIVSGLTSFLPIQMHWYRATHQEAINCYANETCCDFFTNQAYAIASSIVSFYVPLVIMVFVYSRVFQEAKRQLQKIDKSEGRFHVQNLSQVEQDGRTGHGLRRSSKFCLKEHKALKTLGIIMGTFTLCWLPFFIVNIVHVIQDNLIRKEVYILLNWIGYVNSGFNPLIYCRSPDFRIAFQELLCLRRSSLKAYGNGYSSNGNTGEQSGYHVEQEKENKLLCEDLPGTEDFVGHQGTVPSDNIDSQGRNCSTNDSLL
Active calls of the source: *; i = inactive; u = inconclusive; x = no result given.

Second line of a record – B2AR ag	HNF4A DNA FP	UCH37 inh	LANA-H2A inh	FGF22 binding	ALR H2O2 inh	E coli growth
CCCC(C)NC(=O)c1cc(C(=O)OC)cc([N+](=O)[O-])c1 (stereo unspecified)
 : 0.6	-1.6	-0.4	8.9	x	-5.8	0.643
O=c1c2sccc2nc(SCc2ccc([N+](=O)[O-])cc2)n1Cc1ccccn1
 : -12.9	2.5	3.1	2.0	i	u	0.678
COc1ccc(CC(=O)Nc2cccc(-c3nnc(-c4cccc(C)c4)o3)c2)cc1OC
 : 16.8	1.1	-4.6	1.2	x	-0.4	0.696
COc1ccc(-c2nc(CS(=O)CC(=O)NCCCN3CCOCC3)c(C)o2)cc1OC (stereo unspecified)
 : 4.1	-4.0	0.5	2.1	i	99.5*	0.684
O=c1cc(O)nc(SCc2ccccc2)n1-c1ccc(F)cc1
 : 2.3	-1.2	3.4	0.6	x	48.2	0.704
Cc1nnc(NC(=O)c2sc3nc(-c4cccs4)cc(C(F)(F)F)c3c2N)s1
 : -18.4	67.8	x	8.4	i	-0.6	x
Cc1cc(NC(=O)c2ccc3c(c2)OCCO3)ccc1NC(=O)c1ccco1
 : -5.2	-0.2	4.6	-1.6	i	-6.3	0.677
CC12CCC(C(=NO)C1=O)C2(C)C (stereo unspecified)
 : 5.0	1.0	3.9	x	i	x	0.675
O=C1CC(/C=C/c2ccccc2)=Nc2ccccc2N1
 : -0.8	-0.6	3.3	0.4	i	-1.5	0.698
CCN(CC)S(=O)(=O)c1ccc2nc(NC(=O)c3ccco3)sc2c1
 : -4.2	5.2	5.2	-2.8	i	-8.3	0.63
Cc1ccc(C(=O)OCC(=O)N(C)c2c(N)n(Cc3ccccc3)c(=O)[nH]c2=O)s1
 : 0.3	2.5	3.2	0.6	i	-4.0	0.614
COc1ccc(S(=O)(=O)N2CCCCCC2)cc1C(=O)N(C)Cc1c(F)cccc1Cl
 : -0.4	1.9	2.4	0.3	i	x	0.647
CCCCN(C)CCNC(=S)Nc1ccc2nc(N3CCN(CC)CC3)cc(C)c2c1
 : 12.9	1.3	-15.0	-1.5	i	-51.5	0.666
Cc1ccc(S(=O)(=O)c2c[nH]c3ccc(Cl)cc3c2=O)cc1
 : 1.7	1.4	3.4	-0.8	i	-12.6	0.657
COC(=O)c1ccc(CNCC(O)COc2ccc(-c3ccccc3)cc2)cc1 (stereo unspecified)
 : -5.5	4.4	1.6	-5.7	i	-2.8	0.668
O=C(Nc1nc2ccccc2s1)c1c(F)cccc1Cl
 : -6.0	2.1	1.9	-25.1	i	6.7	0.651
COc1ccc(C2(c3ccc(OC)cc3)NC(=O)N(Cn3nnc4ccccc4c3=O)C2=O)cc1
 : -6.3	-0.7	2.0	-1.4	i	-1.0	0.646
Oc1ccc(C[C@H]2CNCCN2CCc2cccc(F)c2)cc1
 : -1.8	-0.7	1.0	1.5	i	6.1	x
Clc1ccccc1CSc1nncn1NC/C=C/c1ccccc1
 : -5.8	0.3	3.6	-1.7	i	-13.7	0.657
CCOc1ccccc1N(CC(=O)NCc1ccncc1)S(=O)(=O)c1ccccc1
 : -1.9	1.1	0.6	2.6	i	-9.9	0.662
COc1cccc(/C=C2/CN(C)CC3=C2OC(N)=C(C#N)C3c2cccc(OC)c2)c1 (stereo unspecified)
 : 9.4	10.0	2.4	2.1	x	-3.6	0.746
Cc1cccc(-c2nnc(SCC3CNC(=O)O3)n2-c2ccc(Cl)cc2)c1 (stereo unspecified)
 : -3.0	1.6	5.3	-2.2	i	-1.4	0.737
Cc1ccc2c(c1)C(c1ccc(F)cc1)N(C(=O)c1ccc(S(=O)(=O)N(C)C)cc1)CC(=O)N2 (stereo unspecified)
 : 5.0	1.6	1.8	-1.2	i	-18.4	0.68
CCCc1cc(=O)oc2c3c(cc(OCC(=O)NCCN4CCOCC4)c12)OC(C)(C)CC3
 : -8.6	0.9	-426.3	0.8	i	-3.3	0.69
COC(=O)CSc1nc2sc(C)c(C)c2c(=O)n1C
 : 3.0	1.8	3.9	-7.1	x	-8.8	0.668
O=C(Nc1ccc(F)cc1F)Nc1ccc(F)cc1F
 : -7.3	5.0	1.6	-2.4	i	-0.7	0.682
COc1ccc(Br)cc1C(=O)Nc1ccc(N2CCN(S(C)(=O)=O)CC2)cc1
 : -5.3	2.6	2.2	4.4	x	x	0.699
CS(=O)(=O)c1ccc(C(=O)OCC(=O)N(CCc2ccccc2)Cc2ccccc2)cc1
 : 2.6	1.1	4.5	2.9	x	-4.6	0.709
O=C(NCc1nc2ccccc2[nH]1)C1=C[C@@H](C2CC2)C[C@@H](OCc2ccc(CO)cc2)O1
 : -2.6	0.4	2.3	4.8	i	6.2	x
O=C(Nc1cccc(-c2csc(Nc3ccccc3)n2)c1)c1cc([N+](=O)[O-])cc(C(F)(F)F)c1
 : 1.1	5.0	3.6	-0.2	i	-5.4	0.801
CN(C)C(=O)c1ccc(NC(=O)COC(=O)/C=C/c2cccs2)cc1
 : 18.4	1.8	3.7	0.2	x	x	0.612
Cc1ccc(S(=O)(=O)N(C)c2ccc(OCC(=O)O)cc2)cc1
 : -1.8	6.7	1.8	-5.8	x	-17.8	0.684
CC(=O)c1ccccc1OCCn1nc(C(=O)O)c2ccccc2c1=O
 : -0.1	1.1	1.2	0.8	i	1.0	0.662
COCc1cc(OC)nc(-c2csc(C)n2)n1
 : -3.0	-6.6	-0.9	2.2	i	-5.5	0.651
CCn1c(=O)c(=O)[nH]c2cc(C(=O)N3CCN(c4ccccc4F)CC3)ccc21
 : -3.7	3.2	2.2	-6.8	x	x	0.708
CNC(=O)NC(=O)COC(=O)CCCSc1nc2ccccc2s1
 : -8.7	0.5	1.5	-3.8	i	x	0.678
Cc1ccc(NC(=O)NNC(=O)C2CC(c3cccnc3)=NO2)cc1 (stereo unspecified)
 : 2.7	-3.1	3.3	-0.6	x	10.4	0.78
O=C(NCCOc1ccc(Cl)cc1)c1ccc2ccccc2n1
 : -9.0	2.4	-1.6	3.7	i	x	0.65
CCN1C(=O)[C@H]2[C@@H](c3ccc(OC)cc3)N3C(=O)CN(CC4CC4)C(=O)[C@@]3(C)[C@H]2C1=O
 : -2.6	2.1	0.9	1.7	i	-12.0	x
COc1cc(CC(=O)Nc2sc3c(c2C(N)=O)CCCC3)cc(OC)c1OC
 : -23.3	0.0	-9.3	3.9	x	-2.6	0.701
Cc1cc(C)c(S(=O)(=O)NCCCN2CCOCC2)cc1Br
 : -7.1	-1.0	2.0	-7.7	x	-10.0	0.729
O=C(NCc1ccccc1C(F)(F)F)C1CC(c2ccc(C(F)(F)F)cc2)=NO1 (stereo unspecified)
 : -10.4	-0.7	0.1	-3.3	i	50.0	0.655
CCOCC(=O)Nc1ccc(F)c(F)c1
 : -3.3	-3.5	x	1.1	x	-22.7	x
CC(=O)Nc1ccc(NC(=O)CNC(=O)COc2ccccc2)cc1
 : -6.1	1.7	0.1	-1.1	i	-5.4	0.656
COc1cc(C)c(CNc2cc(C)cc(C)c2)cc1C
 : 3.3	1.4	4.5	-1.1	x	28.3	0.707
CCN(CC)C(=O)c1ccc(-c2nnc(Nc3cccc(O)c3)c3ccccc23)cc1
 : 11.4	0.0	6.9	-1.1	i	74.2	0.696
CCC(C)(C)n1nnnc1C(c1cc2cc(C)ccc2[nH]c1=O)N1CCCc2ccccc21 (stereo unspecified)
 : 0.4	3.9	-1.2	-2.7	i	-13.4	0.69
COC(=O)c1ccccc1S(=O)c1snnc1C (stereo unspecified)
 : -1.9	1.7	1.9	-6.3	i	-2.8	0.693
CCNS(=O)(=O)c1ccc(NC(=O)c2ccccc2OCC)cc1
 : 17.1	-1.0	2.7	0.3	i	-2.9	0.681
Cn1c(=O)n(Cc2ccccc2F)c(=O)c2c1nc1n2CCCN1CCc1ccccc1
 : 10.3	2.1	0.1	3.4	x	x	0.721
COc1ccc(NC(=O)C2CCN(C(=O)c3cccs3)CC2)c(OC)c1
 : 7.0	-2.4	0.2	-7.5	x	-2.6	0.701
Cc1ccc(CC(=O)NCCN2CCOCC2)cc1
 : -5.6	-1.4	4.3	2.1	i	0.0	0.707
CC(OC(=O)C1CCN(S(=O)(=O)c2ccc(Cl)cc2)CC1)C(=O)NC1CCCCC1C (stereo unspecified)
 : 4.1	-0.9	2.8	-6.0	i	-2.4	0.698
CCOC(=O)N1CCN(C(=O)CN(Cc2ccc(Cl)cc2)S(=O)(=O)c2ccc(C)cc2)CC1
 : 0.2	0.0	-1.5	4.2	x	-2.9	0.674
CN1CCN(C(=O)C2=C[C@H](C3CC3)C[C@H](OCc3ccc(CO)cc3)O2)CC1
 : -3.2	1.5	0.0	0.2	x	-31.4	x
COc1cc(C(=O)Nc2ccccc2NC(=O)c2cc(OC)c(OC)c(OC)c2)cc(OC)c1OC
 : 1.2	1.4	-2.0	3.3	i	-0.8	0.678
O=S(=O)(NC(=NC1CCCCC1)c1ccccc1F)c1ccccc1
 : 9.8	3.6	0.7	-1.1	i	3.4	0.656
COc1cc(Cl)c(C)cc1NC(=O)Cc1cccs1
 : 0.0	-0.1	6.1	1.4	i	-5.6	0.653
COc1cc2c(cc1OC)CN(C(=O)c1ccc(S(=O)(=O)N(C)c3ccccc3)cc1)CC2
 : 2.8	1.3	4.8	7.3	i	-0.4	0.715
Cc1cccc(C)c1OCC(=O)NNC(=O)CCNC(=O)c1ccco1
 : -7.2	2.4	1.6	-2.9	i	-3.4	0.638

(further entries)
Second line of a record – B2AR ag	HNF4A DNA FP	UCH37 inh	LANA-H2A inh	FGF22 binding	ALR H2O2 inh	E coli growth
COc1cccc(NC(=O)C(Sc2nnc(Nc3ccccc3C)s2)c2ccccc2)c1 (stereo unspecified)
 : 6.5	-3.2	1.4	-2.2	i	-21.1	0.735
OCCN1CCN(Cc2ccc3ccccc3c2)CC1
 : 0.8	2.8	1.4	7.5	i	-4.4	0.724
COc1cc(C)c(C)cc1S(=O)(=O)N1CCCc2ccccc21
 : -2.4	-1.8	1.7	-2.8	i	-12.2	0.653
COc1cc(C)c(C(=O)CC(=O)c2c(C)cc(OC)cc2C)c(C)c1
 : -2.2	-0.2	2.0	2.2	i	-3.9	0.649
Cc1c(CN2CCC(CO)(CCOc3ccccc3)CC2)[nH]c2ccc(Cl)cc12
 : 31.1	0.6	4.4	0.4	i	-0.1	0.527*
O=C(CSc1ccc(Cl)cc1)N1CCN(c2ncc(C(F)(F)F)cc2Cl)CC1
 : -14.2	5.7	1.2	2.8	x	-4.8	0.704
COc1ccc(N(CC(=O)NCc2cccnc2)S(=O)(=O)c2c(C)nn(C)c2C)cc1
 : 3.5	4.0	-1.2	-4.6	i	0.1	0.679
Cn1c(=O)c2c(nc(OCc3ccc4c(c3)OCO4)n2Cc2ccccc2Cl)n(C)c1=O
 : 0.7	-6.1	-1.7	-5.0	x	-2.2	0.735
Cc1ccc(N/C(=C\C(=O)c2ccccc2)C(=O)O)cc1
 : 2.5	7.1	16.8	1.1	i	u	0.717
O=C1CSC(c2ccc(Cl)cc2)N1c1cccnc1 (stereo unspecified)
 : 7.9	3.0	5.1	-3.5	i	98.3*	0.706
O=C(C1CC1)N1CCCN(C(=O)C2CC2)CC1
 : -1.6	-3.2	-0.6	3.6	x	-24.8	0.76
COC(=O)c1ccc(NC(=O)COc2coc(CN3CCc4ccccc43)cc2=O)cc1
 : 1.0	-2.6	0.1	-2.5	i	-1.7	0.722
Cc1ccc(-n2c(-c3ccccc3)n[nH]c2=S)c(C)c1
 : -2.5	0.4	5.3	1.1	i	49.4	0.689
O=C(NCC1CCNCC1)c1ccncc1
 : 2.9	-1.4	0.8	-2.2	x	0.6	0.771

Some of the compounds tested, so the mix of outcomes need not match the whole.
